HSV augment: enhancers of HSV replication in host cells, fold increase, host cell viability. maximum fold increase. HSV replication augmentation in cells. 220,000 compounds, 0.005% hits. AID 1956, 2009;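 active = peak rise of 1.5-fold or more in the series; inconclusive = self-fluorescent or not available for retest; tested in PC3 cells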;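 also: first round at 10 µM; read as green reporter fluorescence; hits show the peak of a series up to 25 µM; 1 = signal of infected wells without compound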
PKD1 kinase inh: inhibitors of human PKD1 kinase, biochemical, fluorescence polarization. PKD1 kinase fluorescence polarization assay. 200,000 compounds, 0.056% hits. inhibition, %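 (about 10 µM by stock and volumes)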;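 active = inhibition of 50% or more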;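 also: controls were vehicle for no effect and a reference inhibitor for full effect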
INS promoter inh: inhibitors of insulin promoter-driven GFP, primary screen, imaging, TRM-6 cells (human fetal islet line), eGFP reporter, cell count. reporter expression induced with tamoxifen. inhibition, % at 2 µM. 130,000 compounds, 0.9% hits;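 active = inhibition above the mean plus 3 SD, with well images judged a real hit on visual review, cut at about 60% in these data, passing the limit was not always enough; inconclusive = inhibition over the cutoff but images rejected on review; inactive = inhibition not above the cutoff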
RGS16-Gao: modulators of RGS16 binding to Galphao, primary screen, biochemical, human proteins, multiplexed bead flow cytometry | Regulator of G-protein signaling 16 (Homo sapiens) + Guanine nucleotide-binding protein … | bead-based flow cytometry RGS16-Galphao binding, fluorescence; actives lie on both sides | binding response (% of control), % at 10 µM | 220,000 compounds, 0.38% hits;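 active = below 25% or above 175%, edge rows of some plates excepted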;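 also: Galphao activated by GDP with aluminum fluoride before binding; 100% = wells without compound and 0% = beads without RGS; some results beyond the cut were filed as inactive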
Target sequence (O15492 whole entry, looked up): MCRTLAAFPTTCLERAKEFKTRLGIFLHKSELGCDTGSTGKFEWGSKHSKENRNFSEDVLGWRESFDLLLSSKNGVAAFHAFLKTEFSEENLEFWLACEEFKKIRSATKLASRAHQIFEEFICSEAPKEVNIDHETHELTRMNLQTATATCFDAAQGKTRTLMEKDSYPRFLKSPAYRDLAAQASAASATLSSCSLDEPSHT
Target sequence (P09471 whole entry, looked up): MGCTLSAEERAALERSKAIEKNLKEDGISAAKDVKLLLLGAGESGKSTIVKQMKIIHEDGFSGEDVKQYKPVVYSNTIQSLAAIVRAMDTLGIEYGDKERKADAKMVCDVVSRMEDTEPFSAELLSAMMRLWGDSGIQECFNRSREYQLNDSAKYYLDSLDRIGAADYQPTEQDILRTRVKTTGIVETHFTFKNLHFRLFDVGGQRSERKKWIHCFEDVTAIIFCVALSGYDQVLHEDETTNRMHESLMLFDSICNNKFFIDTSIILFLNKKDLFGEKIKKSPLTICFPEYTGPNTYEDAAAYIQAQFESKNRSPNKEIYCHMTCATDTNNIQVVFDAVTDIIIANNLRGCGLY
GALR2 agonist: GALR2 receptor agonists, primary screen, cell-based. Galanin receptor type 2 (Homo sapiens), O43603. GALR2-expressing cells, agonist activation read-out. activation, %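 (tested at 5 µM)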. 140,000 compounds, 0.48% hits. AID 803, 2007;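 active = above mean plus 3 SD of all compounds, about 5% in these data, not always enough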;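 also: 0% = vehicle buffer wells and 100% = reference agonist at full effect; tested in CHO reporter cells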
Target sequence (O43603 whole entry, looked up): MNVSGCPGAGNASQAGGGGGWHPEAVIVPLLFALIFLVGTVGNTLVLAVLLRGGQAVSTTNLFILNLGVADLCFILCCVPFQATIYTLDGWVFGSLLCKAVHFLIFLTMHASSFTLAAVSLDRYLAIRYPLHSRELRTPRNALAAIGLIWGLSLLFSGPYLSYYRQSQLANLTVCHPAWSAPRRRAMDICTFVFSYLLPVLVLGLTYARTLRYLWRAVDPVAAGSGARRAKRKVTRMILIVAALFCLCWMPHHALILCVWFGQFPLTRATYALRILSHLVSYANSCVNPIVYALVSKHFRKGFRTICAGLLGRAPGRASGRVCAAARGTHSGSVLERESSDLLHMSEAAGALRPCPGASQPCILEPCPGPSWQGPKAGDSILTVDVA
INS promoter inh cell count: further read-out of INS promoter inh, marked with its call; normalized cell count, %; measured here: cell count, toxicity; reference of the scale not given here;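 cells exposed to compound for 48 h; stained nuclei by imaging scaled within each plate; lower means fewer cells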
HSV augment primary fold: second read-out of HSV augment, no call of its own (marks repeat the call); fold increase; compound at 10 µM; measured here: primary screen fold increase 10 uM; tested in PC3 cells;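 GFP signal in the first replicate; 1 = infected wells without compound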
* = called active by the depositor; i = inactive; ? = inconclusive; nt = not tested or not shown.

SMILES	HSV augment	HSV augment primary fold	PKD1 kinase inh	INS promoter inh	INS promoter inh cell count	RGS16-Gao	GALR2 agonist
Cc1csc(NC(=O)CSc2nc(C)nc3c2c(=O)n(C)c(=O)n3C)n1	i	0.95	-5	nt	nt	103	nt
CCC(CC)c1nnc(NC(=O)c2nn(C)c(=O)c3ccccc23)s1	i	1	-8	nt	nt	104	nt
N#Cc1ccc(C(=O)NCC(c2ccco2)N2CCCC2)cc1 (stereo not given)	i	0.9	-4	38	99	101	0.2
CC1CCN(C(=O)c2[nH]cnc2C(=O)N[C@@H](CCCCNC(=O)OC(C)(C)C)C(=O)OC(C)(C)C)CC1	i	0.78	nt	nt	nt	103	nt
CC(C)(C)c1cc(NCc2ccccn2)n2ncc(-c3ccccc3)c2n1	i	0.78	nt	nt	nt	100	nt
COCCCNCCOCCOc1ccc(Cl)cc1Br	i	0.83	-6	-7	166	106	0.3
CC1(C)C(CC2OCC(CN3CCCCC3)O2)[C@H]2CC[C@@H]1C2 (stereo not given in full)	i	0.92	nt	nt	nt	100	nt
N#CC1=C(N)Oc2n[nH]c(-c3ccccc3)c2C1c1cccnc1 (stereo not given)	i	0.94	-22	38	39	106	-2.5
CC(C)CC(COCc1ccc([N+](=O)[O-])cc1)N1CCN(C(=O)c2ccc(C(F)(F)F)cc2)CCC1=O (stereo not given)	i	0.99	-3	0	90	100	-1.6
CCCNC(=O)c1c(N)n(-c2cccc(OC)c2)c2nc3ccccc3nc12	i	0.84	-1	-6	107	98	18*
COC(=O)c1cc(C)ccc1OCc1ccc([N+](=O)[O-])cc1	i	1.1	nt	nt	nt	100	nt
COc1cccc(N2C(=O)C3CCCN3C2c2ccc(N(C)C)cc2)c1 (stereo not given)	i	1.1	6	nt	nt	189	-5.2
Cn1c(=O)c2ncn(CC(=O)NC3CCCCCC3)c2n(C)c1=O	i	0.77	0	-69	201	105	-2.5
CCOC(=S)N/C(=N\S(=O)(=O)c1ccccc1)c1ccccc1	i	1.1	-4	54	79	97	-2.3
Cc1ccc(SCc2nc(N)nc(Nc3ccccc3C)n2)cc1C	i	1.3	2	-18	117	91	0.9
CC1CCC(C(C)C)C(OC(=O)COC(=O)c2ccc(=O)[nH]c2)C1 (stereo not given)	i	0.99	3	nt	nt	98	0.5
Cc1c(NC(=O)C(C)OC(=O)CNC(=O)c2ccccc2)c(=O)n(-c2ccccc2)n1C (stereo not given)	i	0.91	-8	17	85	95	-1.5
CC1(C)CC(=O)C2=C(C1)OC(N)=C(C#N)C2Cc1ccccc1 (stereo not given)	i	1.1	-6	38	69	108	-1.0
O=C(Cc1ccccc1)NC(NC(=S)Nc1cc(Cl)ccc1Cl)C(Cl)(Cl)Cl (stereo not given)	i	0.93	0	nt	nt	108	-2.0
COc1cc2[nH]c3c(N4CCC(C(N)=O)CC4)ncnc3c2cc1OC	nt	nt	-6	57	130	108	-0.5
O=C(CCC1CCCCC1)Nc1ccccc1C(=O)N1CCOCC1	i	0.95	-3	nt	nt	99	nt
CCOC(=O)N1CCC(NC(=O)c2ccc(Cl)cc2)CC1	i	0.99	nt	nt	nt	108	nt
Cc1oc2c(c1C(=O)Nc1cccc3ccccc13)CCCC2	i	0.94	-3	3	109	94	-2.1
O=C(COc1cccc(Br)c1)N/N=C1\CCSC1	i	0.99	0	-25	92	105	nt
Cc1nn(C)cc1C(C(=O)NC1CCCCC1)N(CCc1ccccc1)C(=O)c1cnccn1 (stereo not given)	i	1.1	-6	nt	nt	109	nt

Just PKD1 kinase inh and HSV augment primary fold (5 entries from above):
Compound | PKD1 kinase inh | HSV augment primary fold
CCCNC(=O)c1c(N)n(-c2cccc(OC)c2)c2nc3ccccc3nc12 | -1 | 0.84
Cc1c(NC(=O)C(C)OC(=O)CNC(=O)c2ccccc2)c(=O)n(-c2ccccc2)n1C (stereo not given) | -8 | 0.91
N#CC1=C(N)Oc2n[nH]c(-c3ccccc3)c2C1c1cccnc1 (stereo not given) | -22 | 0.94
CC1(C)CC(=O)C2=C(C1)OC(N)=C(C#N)C2Cc1ccccc1 (stereo not given) | -6 | 1.1
N#Cc1ccc(C(=O)NCC(c2ccco2)N2CCCC2)cc1 (stereo not given) | -4 | 0.9

Entries listed so far shown as hits in GALR2 agonist.
SMILES	HSV augment primary fold	PKD1 kinase inh	RGS16-Gao	GALR2 agonist
CCCNC(=O)c1c(N)n(-c2cccc(OC)c2)c2nc3ccccc3nc12	0.84	-1	98	18*

Continuation.
SMILES	HSV augment	HSV augment primary fold	PKD1 kinase inh	INS promoter inh	INS promoter inh cell count	RGS16-Gao	GALR2 agonist
Cc1nnc(N2C(=O)C(O)=C(C(=O)c3ccco3)C2c2ccc(C(C)C)cc2)s1 (stereo not given)	i	1.1	-9	22	102	111	-0.9
CCCn1c(SCC(=O)NC(C)C23CC4CC(CC(C4)C2)C3)n[nH]c1=O (stereo not given)	i	0.67	-10	-17	139	102	-1.8
CCCCCCOC(=O)Cc1c(C)nc(-c2ccccc2)[nH]c1=O	i	0.88	2	-13	290	102	0.2
COc1cccc(-c2nn(-c3ccccc3)cc2CN(C)Cc2ccno2)c1	i	0.98	8	nt	nt	103	nt
N#C/C(=C\c1c(N2CCC(C(N)=O)CC2)nc2ccccn2c1=O)C(=O)NCc1ccco1	i	0.88	-12	nt	nt	103	-0.3
Cn1c(CCNC(=O)c2ccccc2F)nnc1SCC(=O)Nc1ccccc1F	i	0.9	-5	nt	nt	98	nt
Cc1ccc(/C=N/NC(=O)c2ccccc2OCc2ccc(F)cc2)o1	i	0.94	-14	-14	69	42	-1.9
Cc1ccc(C)c(OCc2nnc(NC(=O)c3ccco3)s2)c1	i	1	-8	36	116	103	-1.2
CCOC(=O)C(C)Oc1ccc2c(CC)cc(=O)oc2c1C (stereo not given)	i	1.1	1	-28	96	95	-0.9
Cc1nn(C2CCCO2)c(=O)nc1N (stereo not given)	i	0.97	-2	nt	nt	103	nt
CCOc1ccc(NC(=S)NNC(=O)c2cc(Br)ccc2Cl)cc1	i	0.98	-1	nt	nt	100	nt
CC(C)c1nnc(NC(=O)C2CCCN2S(=O)(=O)c2ccc(Cl)cc2)s1 (stereo not given)	i	1	-1	nt	nt	100	-1.1
N#C/C(C(=O)N1CCOCC1)=C1/SC(Cc2ccccc2)C(=O)N1c1ccccc1 (stereo not given)	i	1	-4	nt	nt	106	-2.8
COC(=O)c1ccccc1NS(=O)(=O)c1ccc(O)c(C(=O)O)c1	i	0.94	-6	-25	92	92	-0.4
COc1ccc(-n2c(=S)[nH]c3ccccc32)cc1	i	1.1	-1	8	154	85	-1.6
CCC(=O)Nc1c(-c2ccccc2)c(=O)c2ccccc2n1C	i	1	nt	nt	nt	98	nt
O=S1(=O)CCC(NC(=S)NC2CCS(=O)(=O)C2)C1 (stereo not given)	i	1.2	-11	nt	nt	84	-0.8
CCCCCCCCC[n+]1cccc2c3ccccc3ccc21	i	0.66	0	nt	nt	106	0.0
CC(=O)c1cc(O)c2ccccc2c1O	?	nt	nt	nt	nt	94	nt
COC(=O)c1cccc(S(=O)(=O)N(Cc2ccco2)Cc2cc3cc(OC)ccc3[nH]c2=O)c1	i	0.96	-12	-46	96	97	-2.0
Cc1nc2c(c3c1[nH]c1ccccc13)C(=O)CC(C)(C)C2	i	0.9	2	nt	nt	108	-1.6
CCC(C)N(C(=O)CSc1ccc(NC(C)=O)cc1)C1CCS(=O)(=O)C1 (stereo not given)	i	0.91	-2	nt	nt	102	nt
CCN(CCC(=O)O)c1ccccc1	i	1	4	31	43	101	-2.7
COc1cccc(OC)c1C(=O)Nc1ccc([N+](=O)[O-])cn1	i	0.89	-6	-16	86	100	-0.7
COc1ccc(N2C(=O)CC(N(Cc3ccco3)C(=O)CCC(=O)O)C2=O)cc1 (stereo not given)	i	1.1	5	nt	nt	104	nt

Compound profiles, from the list above:
COc1ccc(N2C(=O)CC(N(Cc3ccco3)C(=O)CCC(=O)O)C2=O)cc1 (stereo not given) is entered as HSV augment: i; HSV augment primary fold: 1.1; PKD1 kinase inh: 5; INS promoter inh: nt; INS promoter inh cell count: nt; RGS16-Gao: 104; GALR2 agonist: nt
CC(C)c1nnc(NC(=O)C2CCCN2S(=O)(=O)c2ccc(Cl)cc2)s1 (stereo not given) is entered as HSV augment: i; HSV augment primary fold: 1; PKD1 kinase inh: -1; INS promoter inh: nt; INS promoter inh cell count: nt; RGS16-Gao: 100; GALR2 agonist: -1.1

Other entries.
SMILES	HSV augment	HSV augment primary fold	PKD1 kinase inh	INS promoter inh	INS promoter inh cell count	RGS16-Gao	GALR2 agonist
COC(=O)CSc1nc(N)c(C#N)c(-c2ccco2)c1C#N	i	0.9	4	12	113	108	1.1
O=[N+]([O-])c1ccc(OCCO)c(P(=O)(c2ccccc2)c2ccccc2)c1	i	0.91	nt	nt	nt	103	nt
Cc1ccccc1CSc1ncc(C#N)c(N)n1	nt	nt	-13	-12	157	100	1.1
N#Cc1ccccc1Sc1ccccc1C(=O)Nc1ccc(Br)cc1	nt	nt	-14	-39	119	98	-2.4
O=C(N/C(=C\c1cn(-c2ccccc2)nc1-c1ccc(Cl)cc1)C(=O)N1CCOCC1)c1ccccc1	i	1.1	-1	30	121	104	0.6
CCOC(=O)/C(C#N)=C1/C=CN(C)C=N1	i	0.81	-13	0	112	102	0.3
Cc1ccc(NC(=O)CCNS(=O)(=O)c2ccc3c(c2)c(=O)n(C)c(=O)n3C)cc1C	i	0.92	6	-14	129	102	nt
CC(COc1cccc2ccccc12)CN1CCN(C)CC1 (stereo not given)	i	0.61	-8	-104	134	147	-1.2
CCOc1cnc(-c2ccc(Cl)cc2)o1	i	1	-9	-25	110	90	-3.3
CCN(CC)CCn1c(=N)n(CC(O)COc2cccc(C)c2)c2ccccc21 (stereo not given)	i	0.67	0	nt	nt	95	nt
Cc1cc(C)n(CC(=O)Nc2ccc([N+](=O)[O-])cc2)n1	i	0.97	1	nt	nt	103	nt
c1ccc2cc(-c3csnn3)ccc2c1	i	0.88	-5	-21	153	97	-1.1
Cc1ccc([N+](=O)[O-])cc1NC(=S)NC(=O)c1cccnc1	i	1	1	nt	nt	118	nt
COc1ccccc1/C=N/Nc1nc(C)cc(C)n1	i	0.95	nt	nt	nt	81	nt
Cc1cc(NC(=O)CSc2nnc(C3CC3)n2N)no1	i	1.2	-6	nt	nt	104	-1.1
COc1ccc(Cl)cc1NC(=O)C(C)Sc1nncn1C (stereo not given)	i	1	-10	24	158	96	-6.2
CC(=O)NC1(c2cccc(F)c2)CCN(C(=O)Nc2ccc(C#N)cc2)CC1	i	1	-7	-35	107	97	-0.8
O=C(/C=C/c1cccc(Oc2ccccc2)c1)N1CCOCC1	i	0.89	-3	nt	nt	97	nt
O=C(O)C(Cc1ccccc1)N1CCS(=O)(=O)CC1 (stereo not given)	i	1	3	nt	nt	102	nt
CC/C(=N/Nc1cccc(Cl)c1)c1cnnc(SC)n1	i	0.79	-15	31	148	103	2.1
O=C(NC(=S)Nc1cccc([N+](=O)[O-])c1)c1ccccc1	i	0.98	nt	nt	nt	101	nt
O=C(CNCCCO)Nc1cc(C(F)(F)F)cc(NC(=O)CNCCCO)c1Cl	i	1.2	8	-3	125	105	-0.1
CC(C)C(=O)NC(NC(=O)C(C)C)c1ccc([N+](=O)[O-])cc1	i	0.82	4	0	117	103	-0.3
COc1ccc(C(=O)N(C(C)C)C(C)C)c(OC)c1	i	1.1	-5	-47	123	104	-0.7
COc1ccc(Cl)cc1NC(=O)CSc1nc2sccc2c(=O)[nH]1	i	1.3	8	nt	nt	98	nt
CS(=O)(=O)N1CCc2cc(-c3csc(NCC4CCCO4)n3)ccc21 (stereo not given)	i	0.86	0	nt	nt	107	-2.1
Cc1ccc(NC(=O)NC2CCCCC2)cc1Cl	i	0.85	-14	27	37	104	-2.4
CCCCCCN(C(=O)CCCCCN1C(=O)NC(c2ccc(Cl)cc2)C(C(=O)OCc2ccccc2)=C1C)C(C(=O)NCCCC)c1ccc(OCC(=O)OC)c(C(=O)OC)c1 (stereo not given)	i	0.92	2	30	134	100	0.4

Individual results from the results shown.
RGS16-Gao, Cc1nc2c(c3c1[nH]c1ccccc13)C(=O)CC(C)(C)C2 → 108
RGS16-Gao, CS(=O)(=O)N1CCc2cc(-c3csc(NCC4CCCO4)n3)ccc21 (stereo not given) → 107
PKD1 kinase inh, COc1cccc(OC)c1C(=O)Nc1ccc([N+](=O)[O-])cn1 → -6
PKD1 kinase inh, N#Cc1ccccc1Sc1ccccc1C(=O)Nc1ccc(Br)cc1 → -14

Source: PubChem BioAssay (several laboratories)
